VDR inh – inhibitors of human vitamin D receptor; P11473; VDR-SRC2-3 peptide fluorescence polarization, 2 h; Potency, µM, for inactives: max response, negative = inhibition, hits mostly inhibitors; 0.93% of 400,000 active; active = well fitted inhibition curve with a large enough effect; inconclusive = small, poorly fitted or top-dose-only effect, or another doubt; inactive = no such curve, though single readings can be large or run the other way; note: series mostly up to about 120 µM
Target sequence (P11473 whole entry, looked up): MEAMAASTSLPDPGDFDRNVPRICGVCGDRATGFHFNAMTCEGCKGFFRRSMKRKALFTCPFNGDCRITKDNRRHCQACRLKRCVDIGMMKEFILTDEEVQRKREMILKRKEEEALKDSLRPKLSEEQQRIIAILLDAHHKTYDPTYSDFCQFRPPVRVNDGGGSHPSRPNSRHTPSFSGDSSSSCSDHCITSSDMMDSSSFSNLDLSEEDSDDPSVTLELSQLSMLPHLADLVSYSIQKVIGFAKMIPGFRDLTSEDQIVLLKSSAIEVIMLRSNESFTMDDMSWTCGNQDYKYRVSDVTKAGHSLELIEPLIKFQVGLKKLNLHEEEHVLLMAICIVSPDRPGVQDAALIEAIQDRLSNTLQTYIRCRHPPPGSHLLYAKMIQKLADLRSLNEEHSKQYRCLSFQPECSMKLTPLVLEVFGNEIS
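Fluorescence polarization assay measuring small-molecule disruption of VDR binding to the coregulator peptide SRC2-3. Compounds were pin-transferred (23 nl) into the reagent mix and incubated 2 h at room temperature before reading.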
* = called active by the depositor; u = inconclusive; & = joins results of further samples; [ ] = dose if it differs, or a comment. % is set by controls: 0 for no effect and ±100 for the full control effect; potency is the fitted concentration of half-maximal effect. Only part of the results is shown; count on the stated rates, not on these rows.

| VDR inh | SMILES |
| --- | --- |
| -20.3% | Cc1c(Cl)cccc1NC(=O)CSc1nnnn1C |
| 0.5% | O=C(O)C1CC(CCCP(=O)(O)O)CCN1 (stereo not drawn) |
| 3.1% | COc1ccc(NC(=O)N2CC3(CCN(C(=O)c4ccncc4)CC3)C2)cc1 |
| 5.9% | COc1ccc(NS(=O)(=O)c2cccc(C(=O)NNC(=O)CNC(=O)c3ccccc3)c2)cc1 |
| -7.9% | Cc1ccc(SCC(=O)Nc2nccs2)cc1 |
| 0.1% | CCOc1ccc(S(=O)(=O)N/N=C(\C)C2CCCCC2)cc1 |
| -4.2% | O=C(Oc1cc(-c2ccccc2)no1)c1cccc(C(F)(F)F)c1 |
| 15.0% | COc1cccc(/C=N/NC(=O)CCn2cnc3ccccc32)c1 |
| 3.1% | CCOc1cc(C2C(C#N)=C(N)OC(C)=C2C(C)=O)cc(Br)c1O (stereo not drawn) |
| 9.4% | CCCCN(C(=O)C1CC(=O)N(c2ccc3c(c2)OCCO3)C1)c1c(N)n(CC(C)C)c(=O)[nH]c1=O (stereo not drawn) |
| -12.8% | CCC(=O)N(CCC(Cc1ccccc1)c1ccc2c(c1)OCO2)Cc1ccccc1F (stereo not drawn) |
| -8.3% | O=C(Nc1ccc(F)cc1)c1ccccc1Oc1ccc(C(F)(F)F)cc1[N+](=O)[O-] |

Rewritten as labelled records: part of the list above.
> Cc1c(Cl)cccc1NC(=O)CSc1nnnn1C
  VDR inh = -20.3%

> CCC(=O)N(CCC(Cc1ccccc1)c1ccc2c(c1)OCO2)Cc1ccccc1F (stereo not drawn)
  VDR inh = -12.8%

> COc1cccc(/C=N/NC(=O)CCn2cnc3ccccc32)c1
  VDR inh = 15.0%

> O=C(Nc1ccc(F)cc1)c1ccccc1Oc1ccc(C(F)(F)F)cc1[N+](=O)[O-]
  VDR inh = -8.3%

Additional compounds:
| VDR inh | SMILES |
| --- | --- |
| 6.2% | Brc1cc(Br)c(Oc2cc(Br)c(Br)cc2Br)cc1Br |
| -9.1% | COCCn1c(-c2ccc(OC)cc2)nc2ccccc21 |
| -3.6% | CNC(=O)CSCc1c(Cl)cccc1Cl |
| 4.9% | COc1ccc(C(=O)N2CCN(c3ncnc4c(-c5ccccc5)nsc34)CC2)cc1 |
| 8.3% | Nc1[nH]n(-c2ccccc2)c(=O)c1N=Nc1ccccc1[N+](=O)[O-] |
| -7.5% | CCC(C)NC(=O)CCc1c(C)nc2c(c(C)nn2-c2ccccc2)c1C (stereo not drawn) |
| -12.9% | COc1ccc(S(=O)(=O)Nc2c(C)c(C)cc3c2ncn3C)cc1 |
| -14.6% | Cc1occc1C(=O)NCc1nc(-c2ccccc2)no1 |
| 12.9% | CC(C)(C)c1ccc(C(=O)NCC(c2cccs2)S(=O)(=O)c2ccc(F)cc2)cc1 (stereo not drawn) |
| 10.4% | CCc1cc[n+](CC(=O)Nc2ccc(Cl)cc2Cl)cc1 |
| 5.6% | O=C(COc1ccc(/C=N/NC(=O)C(=O)N2CCCCCC2)cc1)Nc1ccccc1Cl |
| 1.6% | Cc1ccc(CN(C(=O)c2csnn2)C(C(=O)NC2CCCC2)c2ccco2)cc1 (stereo not drawn) |

Look-ups from the entries so far:
VDR inh with Brc1cc(Br)c(Oc2cc(Br)c(Br)cc2Br)cc1Br : 6.2%
VDR inh with COCCn1c(-c2ccc(OC)cc2)nc2ccccc21 : -9.1%

(next part)
| VDR inh | SMILES |
| --- | --- |
| 5.9% | CSc1ccccc1NC(=O)CN(C)CC(=O)Nc1cc(C)ccc1C |
| -9.5% | Cc1cc(C)c(C)c(S(=O)(=O)N[C@@H](C)C(=O)OC(C)C(=O)NC(N)=O)c1C (stereo partly drawn) |
| 1.8% | CCC(C(=O)Nc1cc(F)ccc1F)n1nc(-c2cc(C)ccc2C)ccc1=O (stereo not drawn) |
| u | Cc1nc(C#N)c(N/N=C/c2cccc(Cl)c2)o1 |
| -14.1% | COP(=O)(/C=C/c1ccccc1)C(O)c1ccc(F)cc1 (stereo not drawn) |
| -0.9% | COc1cc(/C=N/n2cnnc2)ccc1OC(=O)c1ccco1 |
| -25.9% | CCCN(C(=O)CSc1nc2cc(S(=O)(=O)N(CC)CC)ccc2o1)C1CCS(=O)(=O)C1 (stereo not drawn) |
| -4.7% | O=C(CN1CCCC1)Nc1ccc(-c2nc3cc(NC(=O)CN4CCCC4)ccc3o2)cc1 |
| -7.3% | COc1cc2[nH]c(=O)n(Cc3ccc(C(=O)N4CCN(c5ccc(Cl)cc5)CC4)cc3)c(=O)c2cc1OC |
| 2.6% | Cc1cc(N2C(=O)C(O)=C(C(=O)c3ccc(C)o3)C2c2cccs2)no1 (stereo not drawn) |
| 3.7% | COc1ccc(N2C(=O)C(CN3CCN(C)CC3)C2c2ccccc2)cc1 (stereo not drawn) |
| -26.9% | CCOC(=O)N1CCc2c(sc(NCc3sccc3C)c2C(=O)Nc2ccc(OC)cc2OC)C1 |
| 0.2% | COCCn1c(C)cc(O)c(C(c2ccc(OC)cc2)N2CCCCC2)c1=O (stereo not drawn) |
| 15.3% | CCNc1cc2oc(=O)c(CN3CCOCC3)c(C)c2cc1C |
| u | CN(C)CC1CCC/C(=C\c2ccc(OC(=O)/C=C/c3ccc(Cl)c(Cl)c3)cc2)C1=O (stereo not drawn) |
| -13.4% | O=C(Nc1cccnc1)OCc1ccccc1 |
| 46.6%[activator] | COc1cc(/C=C/C(=O)N(C)CC(=O)Nc2ccccc2Br)cc2c1OCCO2 |
| 1.0% | O=C(COc1ccccc1N1C(=O)C2C3C=CC(C3)C2C1=O)c1ccccc1 (stereo not drawn) |
| u | O=S(=O)(Nc1nccs1)c1ccc(F)cc1 |
| 7.0% | CC(C)(C)N(Cc1ccccc1)C(=O)COC(=O)c1ccc(S(=O)(=O)N2CCOCC2)cc1 |
| -4.8% | O=C(O)CSc1nnc(-c2ccco2)o1 |
| -5.8% | CCN1CCN(c2nc3c(c(=O)[nH]c(=O)n3C)n2Cc2ccccc2)CC1 |
| 2.7% | Cc1nc(SCc2ccccc2)n[nH]1 |
| -12.7% | Cc1ccccc1NS(=O)(=O)c1ccc(OCC(=O)NCc2ccco2)cc1 |
| 10.7% | COc1cccc(CNC(=O)CCC(=O)N2CCSc3ccccc32)c1OC |
| -5.1% | Cc1cccc(N2C(=O)N3[C@@H]4c5ccccc5OC[C@@H]4[C@@H](c4ccccc4)[C@@]3(C)C2=O)c1 |
| -15.4% | CCN1CCC(O)(C#Cc2ccccc2)CC1 |
| -4.3% | C=CCn1c(N)c(C(=O)NCc2cccnc2)sc1=S |
| -5.6% | CC(C)c1ccc(/C=C2\SC(=O)N(CC(=O)NC3C=CS(=O)(=O)C3)C2=O)cc1 (stereo not drawn) |
| -3.1% | Cc1ccc(NC(=O)c2cc(S(=O)(=O)N3CCCC(C)C3)cn2C)c(Br)c1 (stereo not drawn) |
| 2.8% | COc1ccc(C(CC(=O)NCc2ccc(Cl)cc2)N2Cc3ccccc3C2=O)cc1OC (stereo not drawn) |
| -19.0% | CNc1nc(Oc2ccccc2C(=O)OC)nc(SC)n1 |
| -7.4% | COC(=O)CSc1nnc(-c2sc3ccccc3c2Cl)o1 |
| -2.6% | O=C(Nc1ccccc1C(=O)NCCN1CCOCC1)c1ccc(Cl)cc1Cl |
| 2.0% | COc1ccc(C(=O)NC(CC(C)C)C(=O)O)cc1OC (stereo not drawn) |
| -13.3% | Cc1ccc(C(=O)COC(=O)CCS(=O)(=O)c2ccccc2)cc1[N+](=O)[O-] |
| -27.7% | Cc1ccccc1C1C(C#N)=C(N)N(N(C)C)C2=C1C(=O)CC(C)(C)C2 (stereo not drawn) |
| -2.4% | CCn1cc([N+](=O)[O-])c(C(=O)NCc2ccc3c(c2)OCO3)n1 |
| -29.7% | COCCCNC(=O)c1ccc(-n2nc(C(F)(F)F)cc2-c2cccs2)cc1 |
| -10.1% | COc1ccc(CN(C(=O)/C=C/c2ccco2)C2CCS(=O)(=O)C2)cc1OC (stereo not drawn) |
| 4.5% | O=C(COC(=O)c1cccs1)Nc1cccc(S(=O)(=O)N2CCCCC2)c1 |
| 8.1% | Cc1cccc(C(=O)N2CCCC(N3CCN(c4ccc(F)cc4)CC3)C2)n1 (stereo not drawn) |
| 6.7% | O=C(C[n+]1ccccc1)Nc1ccccc1[N+](=O)[O-] |
| -4.4% | Cc1ccc(NC(=O)CN2C(=O)c3ccccc3C2=O)c(C)c1 |
| -6.3% | CSc1ccccc1NC(=O)CSc1cccc[n+]1[O-] |
| -20.5% | CC(C)Cc1nnc(NC(=O)CCNC(=O)c2ccccc2Cl)s1 |
| 1.2% | O=C(c1ccccc1F)N1CCN=C1c1ccccc1 |
| -15.0% | CCOC(=O)c1ccc(NC(=O)c2ccc(CN3CCOCC3)cc2)cc1 |
| 2.5% | Cc1ccc(C)c(NC(=O)C2CCCN(S(=O)(=O)c3cn(C)cn3)C2)c1 (stereo not drawn) |
| -8.3% | CN1CCN(c2ncc3c(n2)CC(c2ccccc2F)CC3=O)CC1 (stereo not drawn) |
| 10.3% | Cc1cccc(OP(=O)(Nc2c(C)n(C)n(-c3ccccc3)c2=O)Oc2cccc(C)c2)c1 |
| -9.5% | CC(=O)N1c2ccc(S(=O)(=O)NCC3CCC(C(=O)Nc4cc(C)ccn4)CC3)cc2CC1C (stereo not drawn) |
| -0.4% | COc1ccccc1C(=O)N1CCN(c2ccccn2)CC1 |
| 7.6% | CCOC(=O)C1=C(C)N(C)C(=O)NC1c1c(C)nn(-c2ccc(C)cc2)c1Cl (stereo not drawn) |
| -17.6% | O=C(O)C(Cc1ccc(O)c([N+](=O)[O-])c1)N1C(=O)c2ccccc2C1=O (stereo not drawn) |
| -25.8% | COc1ccc(-n2nc([N+](=O)[O-])c(=NCCC3=CCCCC3)n2O)cc1 |
| u | CCOc1ccc(/C=C\c2nc(O)c([N+](=O)[O-])c(=O)[nH]2)cc1OCC |
| -4.9% | O=C(CSCc1c(F)cccc1Cl)NCc1ccco1 |
| -2.0% | Cn1c(SCC(=O)NC2CC2)nnc1-c1cccc(NC(=O)c2ccccc2F)c1 |
| 0.8% | CCc1ccccc1NC(=O)CSC1=C(C#N)C(c2ccc3c(c2)OCO3)C2=C(CCCC2=O)N1 (stereo not drawn) |

Continued.
| VDR inh | SMILES |
| --- | --- |
| -17.1% | Cc1cc(C)c2cc(C#N)c(N3CCCC3)nc2c1 |
| -1.9% | CCNC(=O)CN1C(=O)NC(CCc2ccccc2)C1=O (stereo not drawn) |
| -0.5% | COc1ccc(CCNC(=S)NC(=O)c2c(-c3ccccc3Cl)noc2C)cc1OC |
| -9.1% | CSc1ccc(/C=N/n2c(Cc3ccc(Br)cc3)n[nH]c2=S)cc1 |
| -4.7% | COc1ccc(NC(C)=O)cc1NC(C)C(=O)Nc1ccc(S(=O)(=O)N2CCCCC2)cc1 (stereo not drawn) |
| -2.3% | O=C(COC(=O)c1ccc2ccccc2n1)Nc1ncc(C(F)(F)F)cc1Cl |
| -8.5% | CC1CCN(C(=O)c2[nH]cnc2C(=O)N[C@@H](Cc2ccccc2)C(=O)OC(C)(C)C)CC1 |
| -2.6% | COc1cccc(NC(=O)CSc2nc3ccccc3c(=O)n2C)c1 |
| -3.5%&-6.0% | COc1cc(O)c(C(CC(=O)N2CCCC2)c2cc(OC)c(OC)c(OC)c2)c(OC)c1 (stereo not drawn) |
| -6.9% | O=S(=O)(CCOc1ccccc1)c1nc2ccccc2[nH]1 |
| -10.5% | CCc1cccc(CC)c1NC(=O)CCS(=O)(=O)c1ccc2c(c1)CCN2C(C)=O |
| -5.0% | Cc1cc(=O)c2c([nH]1)c(C)cc1[nH]c(C)c(C)c12 |
| -4.8% | Cn1c(=N)n(CC(O)c2ccccc2)c2ccccc21 (stereo not drawn) |
| 8.4% | COc1cccc(CN(C)C(=O)c2cc(S(=O)(=O)NC3CCCCC3)ccc2C)c1 |
| 12.9% | CC1CC(C)CN(C(=O)CN2C(=O)NC(c3ccccc3)(c3ccccc3)C2=O)C1 (stereo not drawn) |
| -4.2% | N/C(=N\OC(=O)c1ccc2ccccc2c1)c1cccc([N+](=O)[O-])c1 |
| 0.5% | O=C(NC1CCCCC1)c1cc(-c2ccc(Cl)cc2)on1 |
| 14.1% | CC(C)[C@H](NC(=O)Nc1ccc(S(N)(=O)=O)cc1)C(=O)O |
| -6.7% | CN1C(=O)C(CC#N)(C2(CC#N)C(=O)N(C)c3ccccc32)c2ccccc21 (stereo not drawn) |
| -6.8% | O=C(Nn1c(=O)[nH]c2ccccc2c1=O)c1ccco1 |
| -0.5% | COc1ccc(-c2cc(C(F)(F)F)n3nc(C(=O)N(C)Cc4ccccc4)cc3n2)cc1OC |
| -17.9% | COc1cc(C=c2c3ccccc3n3c2cc(-c2ccccc2)[n+]3C)cc(OC)c1OC |
| 16.0% | COc1cccc(C(=O)C2CCCN(Cc3cccc(-n4nc(C)cc4C)c3)C2)c1 (stereo not drawn) |
| -2.5% | Cc1ccc(-c2noc(CSc3nnc(CCc4ccccc4)n3-c3ccccc3)n2)cc1 |
| -11.6% | CCN1CCN(S(=O)(=O)c2ccc(OC)c(NC(=O)c3ccccc3)c2)CC1 |
| -18.0% | CN1CCCN(C(=O)CC(c2ccccc2)c2ccccc2)CC1 |
| -5.9% | O=C(CN1C(=O)/C(=C\c2cccs2)SC1=S)Nc1cccc(C(=O)O)c1 |
| 0.7% | Cc1ccsc1C(=O)C1CCCN(Cc2cc(F)ccc2-n2cccn2)C1 (stereo not drawn) |
| 3.1% | CCn1ccnc1CN1CCC(n2nccc2NC(=O)c2ccccc2OC)CC1 |
| 4.7% | CN=C(c1ccccc1)c1c(C)cccc1C |
| -15.7% | CCOC(=O)N1CCN(C(=O)C2CCN(c3nnc(-n4cccc4)s3)CC2)CC1 |
| -0.3% | Cc1sc2ncn(CC(=O)N3CCN(c4cccc(Cl)c4)CC3)c(=O)c2c1S(=O)(=O)N1CCC(C)CC1 |
| -5.8% | N#CCC(=O)c1sccc1-n1cccc1 |

Compound activity (PubChem BioAssay)
